Compound activity (PubChem)
Sa growth inh: blocks Staphylococcus aureus growth | S. aureus RN4220 growth, OD600, 20 h, 42 °C; stronger effect = lower value | relative growth, % (concentration not given with the values) | 170,000 compounds, 0.53% hits | AID 720641;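 active means growth at 42 °C up to 50% and 20 or more points under that at 30 °C, or under 10% at both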;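 further: 300 nL library stock went into each well; scaled to the means of positive and negative controls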
GIV Gai3 FP: GIV-Galpha-i interaction inhibition; P08753; Galpha-i3/FITC-GIV peptide fluorescence polarization, 90 min; stronger effect = lower value; scaled: aluminum fluoride 0%, vehicle 100%; percent of control (FP), % (test concentration not listed); 210,000 compounds, 0.42% hits; AID 1224905;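 active means replicate mean at 85% of control or lower, very high polarization wells dropped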;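 further: wells of about 15 µL received 100 nL stock; the first replicate is given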
Target sequence (P08753 whole entry, looked up): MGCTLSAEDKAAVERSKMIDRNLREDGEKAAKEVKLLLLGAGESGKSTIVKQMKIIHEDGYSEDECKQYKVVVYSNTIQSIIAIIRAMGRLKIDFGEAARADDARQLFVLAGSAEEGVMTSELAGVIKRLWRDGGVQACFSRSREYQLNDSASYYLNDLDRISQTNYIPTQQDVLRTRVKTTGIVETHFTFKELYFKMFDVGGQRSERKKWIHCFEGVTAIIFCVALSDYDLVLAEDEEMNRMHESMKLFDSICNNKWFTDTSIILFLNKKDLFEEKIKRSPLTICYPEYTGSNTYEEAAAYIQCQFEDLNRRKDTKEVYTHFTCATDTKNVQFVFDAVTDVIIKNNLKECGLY
HCMV NEC inh: disrupts HCMV UL50-UL53 complex binding | 190,000 compounds, 0.15% hits | inhibition, % (no concentration beside the values) | HTRF UL50-UL53 interaction, normalized percent inhibition;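 active means both replicates at 50% or more, plus weaker picks with an unusually low signal ratio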;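 further: stock transfer was 100 nL into about 20 µL; 0% = negative control wells and 100% = wells with untagged competitor protein; inactives centre near -12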
Sa growth inh second temp: also measured in Sa growth inh; calls as there; relative growth, %; measured here: growth at 30 °C;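 optical density after 20 h as mean of two plates; 100% = untreated growth and lower means inhibition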
The depositor's hits bear a star; · = not tested or not shown.

Every second line gives: HCMV NEC inh	GIV Gai3 FP	Sa growth inh	Sa growth inh second temp
#1 COc1ccc(C)cc1NC(=O)NCc1cccn1Cc1ccccc1
  ·	100	109	96
#2 Cc1cccc(Cn2c(CNS(=O)(=O)c3ccc(Cl)s3)nc3cccnc32)c1
  ·	103	67	16
#3 COC(=O)N/N=C\c1c(C)n(Cc2ccccc2)c2ccccc12
  -14	106	110	98
#4 Cc1cccc2cc(C3CC(c4ccccc4)=NN3C(=O)CCC(=O)O)c(Cl)nc12 (configuration not stated)
  2	106	·	·
#5 COc1ccc(CN=CC2=C(O)CC(C)(C)CC2=O)cc1
  ·	103	104	96
#6 CCN1CCN(c2nc3ccccc3n3c(C)nnc23)CC1
  -16	108	97	78
#7 CCCCNC(=S)NC1CCCC1
  2	97	103	102
#8 Cc1ccc(OCC(O)Cn2c(=N)n(C)c3ccccc32)cc1 (configuration not stated)
  -43	103	94	81
#9 O=C(CCCc1nnc2n3nc(-c4ccccc4)nc3c3ccccc3n12)N1CCC(N2CCCCC2)CC1
  -21	105	·	·
#10 Nc1nccc(-c2nn(-c3ccc(F)cc3)ccc2=O)n1
  -38	112	86	86
#11 CC1CCCCC1Nc1n[nH]c(=S)s1 (configuration not stated)
  12	·	110	102
#12 CCOc1ccc2c(c1)C1(C)CC(C)(C)N2C(=O)N1c1ccc(Cl)c(Cl)c1 (configuration not stated)
  ·	101	107	86
#13 O=S(=O)(NCC(O)c1ccccc1)c1ccc(-c2ccccn2)s1 (configuration not stated)
  -42	96	88	83
#14 O=C(Nc1ccccc1F)c1ccc2snnc2c1
  -21	106	90	88
#15 Cc1ccc(-n2c(Cc3ccccc3)nnc2SCc2nc(-c3cccs3)no2)cc1
  -13	102	101	79
#16 CCN(CC)CCCn1c(N)c(-c2nc3ccccc3[nH]2)c2nc(C#N)c(C#N)nc21
  -29	94	94	77
#17 COc1ccc(OC)c(NS(=O)(=O)c2ccc(-c3cc(C)no3)s2)c1
  ·	101	80	79
#18 COc1ccc(C2=C(C)C(N3CCC(C(=O)NCC4CCCO4)CC3)=NS2(=O)=O)cc1 (configuration not stated)
  -70	99	·	·
#19 COc1ccccc1-n1cnc2cc(Nc3nnc(C)c4ccccc34)ccc21
  -17	104	·	·
#20 O=C(Nc1ccc(F)cc1)C1C2C3CCC(C3)C12 (configuration not stated)
  -9	·	95	84
#21 Cc1ccc2c(CC(=O)Nc3cccc(C(F)(F)F)c3)coc2c1
  -6	105	94	72
#22 O=C(Nc1ccc(N2CCOCC2)cc1)C1CC(=O)N(Cc2ccccc2)C1 (configuration not stated)
  -4	·	93	98
#23 CCC(=O)Oc1ccc(/C=C(\C#N)c2nc3ccccc3[nH]2)cc1OC
  -85	89	87	79
#24 CS(=O)(=O)Nc1ccc(-c2nc3cccnc3s2)cc1
  ·	104	99	86
#25 O=C(O)CCS(=O)(=O)c1cccc2cccnc12
  -33	102	110	84
#26 Cc1nn2c(=O)cc(COc3ccc(C(C)(C)C)cc3)nc2s1
  -2	106	·	·
#27 CN(C(=O)COC(=O)c1ccc2c(=O)n3c(nc2c1)CCCCC3)C1(C#N)CCCCC1
  -13	·	92	94
#28 CC(=O)N1CCC2(CC1)OC(=O)C(C)=C2C(=O)Nc1ccccc1C(F)(F)F
  ·	103	85	91
#29 COc1ccccc1CNC(=O)c1ccc2c(c1)N(Cc1cccc(C)c1)C(=O)c1ccccc1S2(=O)=O
  -38	101	92	92
#30 CSc1ncnc2c1nnn2Cc1ccccc1Cl
  -13	106	93	87

Looked up above.
`CC1CCCCC1Nc1n[nH]c(=S)s1` (configuration not stated) in Sa growth inh second temp shows 102
`CC(=O)N1CCC2(CC1)OC(=O)C(C)=C2C(=O)Nc1ccccc1C(F)(F)F` in Sa growth inh second temp shows 91
`Cc1ccc(-n2c(Cc3ccccc3)nnc2SCc2nc(-c3cccs3)no2)cc1` in GIV Gai3 FP shows 102
`O=C(Nc1ccc(N2CCOCC2)cc1)C1CC(=O)N(Cc2ccccc2)C1` (configuration not stated) in Sa growth inh second temp shows 98
`COc1ccccc1CNC(=O)c1ccc2c(c1)N(Cc1cccc(C)c1)C(=O)c1ccccc1S2(=O)=O` in HCMV NEC inh shows -38

Returning to the listing, starting two compounds before the break.
Every second line gives: HCMV NEC inh	GIV Gai3 FP	Sa growth inh	Sa growth inh second temp
#29 COc1ccccc1CNC(=O)c1ccc2c(c1)N(Cc1cccc(C)c1)C(=O)c1ccccc1S2(=O)=O
  -38	101	92	92
#30 CSc1ncnc2c1nnn2Cc1ccccc1Cl
  -13	106	93	87
#31 Cc1ccc(N2C(=O)/C(=C\c3ccc4c(c3)OCO4)N=C2SC2CCOC2=O)cc1 (configuration not stated)
  -40	·	90	99
#32 COc1ccc(NC(=O)Cn2nnc(C(=O)Nc3ccc(OC)c(OC)c3)c2N)cc1
  -28	95	89	84
#33 O=C(OCc1ccc(Cl)cc1)c1ccc2c(c1)C(=O)N(CCCN1CCOCC1)C2=O
  1	·	113	94
#34 CC(=O)N1CCN(C(=S)c2ccc(C(C)(C)C)cc2)CC1
  -19	98	92	87
#35 CC(C)CNS(=O)(=O)c1ccc(S(=O)(=O)N2CCCC(C(=O)NC3CCCCC3)C2)cc1 (configuration not stated)
  -33	104	110	96
#36 C=CCn1c(SCC(=O)OC(C)(C)C)nc2scc(-c3ccco3)c2c1=O
  -3	·	95	95
#37 COc1ccc2[nH]cc(NC(=O)N3CCN(C(=O)OC(C)(C)C)CC3)c(=O)c2c1
  -8	104	115	87
#38 O=c1oc(-c2ccccc2F)nc2scc(-c3cccs3)c12
  -15	99	·	·
#39 COc1cc(/C=N/S(=O)(=O)c2ccc(Br)cc2)cc(OC)c1O
  -28	·	93	97
#40 CCOc1ccc2nc(Cl)c(CN(Cc3ccco3)C(=O)C3CC3)cc2c1
  10	96	86	102
#41 Cc1cc(C(=O)Nc2ccccc2N2CCCCC2)no1
  10	106	118	99
#42 CCN(CC)CCNC(=O)c1ccc2c(c1)NC(=O)C(CS(=O)(=O)Cc1ccc(F)cc1Cl)N2 (configuration not stated)
  ·	113	85	98
#43 Cc1ccccc1OCC(=O)Nc1cccnc1
  1	·	126	82
#44 O=S(=O)(c1cnc[nH]1)N1CCN(Cc2ccccc2)CC1
  -15	104	83	86
#45 CNCc1ccccc1C(F)(F)F
  16	·	95	100
#46 CC(=O)Nc1ccc2c(c1)nc1n2CCN(c2ccccc2)C1
  -1	105	88	86
#47 COC(CN(C)c1cc(C)nc2c(-c3ccc(Cl)cc3)c(C)nn12)OC
  ·	106	92	87
#48 Cc1cccc(Nc2cc(=O)[nH]c(=O)[nH]2)c1
  10	108	69	82
#49 CCOC(=O)C(Cc1c[nH]c2ccccc12)NC(=O)c1ccc([N+](=O)[O-])cc1Cl (configuration not stated)
  -97	98	·	·
#50 CCN1CCCC1CNC(=O)C1=Cc2ccccc2OC1 (configuration not stated)
  -53	104	·	·
#51 Cc1cc(=O)n2nc(N(C)CC(=O)NC3CCCc4ccccc43)sc2n1 (configuration not stated)
  -9	95	101	91
#52 COc1cc(NC(=O)C2CCCN(S(=O)(=O)c3ccc4c(c3)oc(=O)n4C)C2)c(C(=O)O)cc1OC (configuration not stated)
  -14	106	116	83
#53 O=C1C2=C(Nc3ccccc3SC2c2ccccc2C(F)(F)F)c2ccccc21 (configuration not stated)
  1	104	124	105
#54 COc1ccc(N(C(C)C(=O)O)S(C)(=O)=O)cc1 (configuration not stated)
  1	103	127	94
#55 O=S1(=O)CCC(Nc2ncnc3cc(-c4ccc(F)cc4)sc23)C1 (configuration not stated)
  -40	·	52	29
#56 Cc1c(-c2cccc(NC(=O)Nc3ccc(Cl)cc3)c2)nc2ncccn12
  ·	106	83	50
#57 Cc1cc(C)n(CCc2nc(-c3ccco3)cs2)n1
  -16	·	106	74
#58 O=C(Cn1nnc2ccccc2c1=O)NC(=O)Nc1ccccc1F
  3	·	71	96
#59 Cc1ccc(N(Cc2nc3nc(C)cc(=O)n3[nH]2)C(=O)c2ccc(Cl)cc2)cc1
  -2	103	·	·
#60 Cc1cccc(NC(=O)C2CC(=O)N(c3ccccc3)C2)n1 (configuration not stated)
  -11	·	117	82
#61 CSc1nn2c(=O)c(Cc3ccccc3)nnc2s1
  -35	113	94	91
#62 COc1cc(Cl)c(C)cc1NC(=O)CCCN1C(=O)C(c2ccccc2)Oc2cccnc21 (configuration not stated)
  ·	104	100	104
#63 O=C1/C(=C\c2ccccn2)CN(Cc2ccccc2)C/C1=C\c1ccccn1
  ·	102	101	68
#64 O=C(NCC12CC3CC(C1)CC(CNC(=O)N1CCCC1)(C3)C2)N1CCCC1
  -9	103	109	87
#65 CCS(=O)(=O)c1ccc2oc(SCC(=O)CSc3nc4cc(S(=O)(=O)CC)ccc4o3)nc2c1
  -10	·	105	86
#66 CCOCCc1nn2c(=O)cc(COC(=O)CNC(=O)c3cccc(C)c3)nc2s1
  ·	111	113	89
#67 Cc1cc(NC(=O)CSc2nnc(-c3cccs3)n2C)no1
  0	96	92	100
#68 CC1CCC(C(=O)NC(C(=O)Nc2ccc3c(c2)OCO3)C(C)C)CC1 (configuration not stated)
  -9	101	108	94
#69 CN1C(=O)/C(=C/c2ccc(-c3ccc(C(=O)O)cc3)o2)c2ccccc21
  ·	110	71	82
#70 CCN(Cc1ccccc1)C(c1cccnc1)c1nnnn1Cc1ccccc1 (configuration not stated)
  13	109	102	93
#71 Cc1ccc(NS(=O)(=O)c2ccc3c(c2)sc(=O)n3CCC(=O)N2CCCC2)nc1
  -11	105	·	·
#72 CCc1ccc(-c2nc(CSCC(=O)N3CCN(CC)CC3)c(C)o2)cc1
  0	100	93	81
#73 COc1ccccc1NC(=O)c1c(NC(=O)c2cccs2)sc2c1CCC(C(C)(C)C)C2 (configuration not stated)
  13	99	93	103
#74 COc1cc(-c2noc(-c3ccc(NCc4cccnc4)c([N+](=O)[O-])c3)n2)cc(OC)c1OC
  -3	106	94	85
#75 NC(=O)CSc1nnc(C2CC2)n1C1CC1
  -21	·	92	99
#76 COC(=O)C1=C(C)N(Cc2ccc(C)cc2)C(=O)/C1=C\c1ccccc1O
  ·	101	86	66
#77 CS(=O)(=O)N1CCCC(C(=O)N2CCN(c3ccc(F)cc3)CC2)C1 (configuration not stated)
  -30	104	119	101
#78 Cc1ccc(CNC(=O)CSc2ncc3c(n2)-c2cc(Cl)ccc2N(C)S3(=O)=O)cc1
  ·	98	107	90
#79 COc1ccc(NC(=O)N2CCN(c3ccc(=O)n(-c4ccc(F)cc4)n3)CC2)cc1
  -52	101	·	·
#80 O=S(=O)(c1ccc2nc(Nc3cccc(F)c3)ccc2c1)N1CCCC1
  ·	103	94	92

Compounds above with an aryl thioether with sulfur outside any ring (eight):
Every second line gives: HCMV NEC inh	GIV Gai3 FP	Sa growth inh	Sa growth inh second temp
#15 Cc1ccc(-n2c(Cc3ccccc3)nnc2SCc2nc(-c3cccs3)no2)cc1
  -13	102	101	79
#30 CSc1ncnc2c1nnn2Cc1ccccc1Cl
  -13	106	93	87
#36 C=CCn1c(SCC(=O)OC(C)(C)C)nc2scc(-c3ccco3)c2c1=O
  -3	·	95	95
#61 CSc1nn2c(=O)c(Cc3ccccc3)nnc2s1
  -35	113	94	91
#65 CCS(=O)(=O)c1ccc2oc(SCC(=O)CSc3nc4cc(S(=O)(=O)CC)ccc4o3)nc2c1
  -10	·	105	86
#67 Cc1cc(NC(=O)CSc2nnc(-c3cccs3)n2C)no1
  0	96	92	100
#75 NC(=O)CSc1nnc(C2CC2)n1C1CC1
  -21	·	92	99
#78 Cc1ccc(CNC(=O)CSc2ncc3c(n2)-c2cc(Cl)ccc2N(C)S3(=O)=O)cc1
  ·	98	107	90
